Screening data: PubChem BioAssay, PCMD
Biofilm kill mix = mixtures killing C. albicans biofilm; C. albicans biofilm persisters + clotrimazole, fluorescence viability; primary screen in compound mixtures of four per well; inhibition, % at 7.6 µM; hit rate 0.02% among 120,000; AID 1242;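 active means inhibition above 30.3% in the primary screen of four-compound pools, then above 30% when the compound was retested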;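 further: compounds exposed to preformed 24 h biofilms for 48 h; the number belongs to the whole pool; some results filed as inactive read as strong as hits; inactives centre near 12; 0% = biofilm with clotrimazole alone and 100% = kill control; retested singly at about 60 µM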
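Incubation: 24 h biofilm formation, then 48 h compound exposure, 37 °C | Material: C. albicans biofilms | Buffer or medium: RPMI/MOPS medium, pH 7.0 | Measured by: 2-h Alamar Blue fluorescence, 535/590 nm excitation/emission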
Starred values were filed as active, the others as inactive.

COc1ccc(N2C(=O)CC(N3CCN(Cc4ccc5c(c4)OCO5)CC3)C2=O)cc1 (stereo unspecified) was read as Biofilm kill mix 8.
For CC1(C)OC(=O)C(=CNC(CO)C(=O)O)C(=O)O1 (stereo unspecified) the results were Biofilm kill mix 10.
For Cc1cc(SCC(=O)c2cccs2)n2nc(C)c(-c3ccc(Cl)cc3)c2n1 the results were Biofilm kill mix 8.
For Cc1c(Cl)cccc1NC(=S)N1CCCN(Cc2ccccc2F)C1 the results were Biofilm kill mix 10.
Screening O=C(Nc1cccc(F)c1)c1ccco1 returned Biofilm kill mix 27.
Screening COc1ccc(-c2cc3cc(C(=O)O)ccn3c2C(=O)c2ccccc2)cc1 returned Biofilm kill mix 19.
For O=C(NC1CC1)C1=C[C@H](c2csc3ccccc23)C[C@H](OCCCCO)O1 the results were Biofilm kill mix 17.
`COc1cccc(-c2noc(-c3ccc(Cl)nc3)n2)c1` gave Biofilm kill mix 19.
Screening CC(C)(C)C(=O)Cn1nc(Cl)nc1Cl returned Biofilm kill mix 8.
`O=C1CCCS(=O)(=O)c2ccccc21` gave Biofilm kill mix 10.
CC1=CCC(C(=O)O)(C(=O)N/N=C/c2cccnc2)C(c2ccccc2)C1 (stereo unspecified) was read as Biofilm kill mix 3.
CCOC(=O)C1CCCN(Cc2nc(Cc3cccc(F)c3)no2)C1 (stereo unspecified) was read as Biofilm kill mix 12.
CCCCCCCCCOC1OC(CO)C(O)C(O)C1NC(C)=O (stereo unspecified) was read as Biofilm kill mix 13.
CCOC(=O)C1CCN(C(=O)/C(C)=C\c2ccccc2)CC1 was read as Biofilm kill mix 15.
Screening CC(C)CCCCCCNC(=S)Nc1ccc(S(=O)(=O)N2CCOCC2)cc1 returned Biofilm kill mix 1.
Screening O=C(CP(=O)(c1ccccc1)c1ccccc1)Nc1nc2ccccc2s1 returned Biofilm kill mix 12.
For CC1CCC2C(C1)Nc1c(C(=O)O)cccc1C2(C)C (stereo unspecified) the results were Biofilm kill mix 6.
O=C(Cc1ccc(-n2c(=O)c3ccccc3n(Cc3ccccc3F)c2=O)cc1)NCC1CCCO1 (stereo unspecified) was read as Biofilm kill mix 12.
For O=C(NNc1ccc(Cl)nn1)c1ccc(Cl)cc1 the results were Biofilm kill mix 17.
Screening Nc1c(C(=O)NCCC2=CCCCC2)sc2ccc(S(=O)(=O)N3CCCCC3)cc12 returned Biofilm kill mix 5.
`O=C(O)C1=C[C@@H](c2coc3ccccc3c2=O)C[C@@H](OCCCCO)O1` gave Biofilm kill mix 11.
Screening O=C(Nc1ccc(Cl)cc1)Nc1cccc(C(=O)O)c1 returned Biofilm kill mix -3.
Screening Cc1ccc(-c2n[nH]c(=O)c3ccccc23)cc1S(=O)(=O)Nc1ccccc1 returned Biofilm kill mix 5.
For O=C1CCCC(O)=C1C1C2=C(CCCC2=O)OC2=C1C(=O)CCC2 the results were Biofilm kill mix 0.
CC(=O)c1c(C)[nH]c(C(=O)N(CCc2ccccc2)Cc2ccccc2)c1C was read as Biofilm kill mix 6.
S=c1[nH]nc(CNc2cccc(Cl)c2)o1 was read as Biofilm kill mix 12.
`CSCC[C@H](NC(=O)OC(C)(C)C)C(=O)N/N=C/c1cccc2nccnc12` gave Biofilm kill mix 6.
For NC(=O)[C@@H]1CC2(CC(c3cccc(NC(=O)CC(c4ccccc4)c4ccccc4)c3)=NO2)CN1C(=O)c1ccc(Cl)cc1 (stereo partly specified) the results were Biofilm kill mix 8.
For COc1cc(NC(=O)CN2C(=O)CN(C)C2=O)c(C)cc1[N+](=O)[O-] the results were Biofilm kill mix 8.
Screening COc1cccc(CN(C)C(=O)c2cc(COc3c(F)cccc3F)on2)c1 returned Biofilm kill mix 14.
Screening CCc1nnc(NC(=O)CCC(=O)NCCc2ccc(OC)c(OC)c2)s1 returned Biofilm kill mix 17.
COC(=O)c1cc2c(ccn2-c2ccc(F)cc2)n1Cc1ccc(OC(C)=O)cc1 was read as Biofilm kill mix 16.
Cc1ccc(C2OC34CCCCCC3C(C#N)(C(=N)O4)C2(C#N)C#N)cc1 (stereo unspecified) was read as Biofilm kill mix 12.
For CCC(C)NC(=O)c1ccc(C2SCC(=O)N2Cc2ccccc2)cc1 (stereo unspecified) the results were Biofilm kill mix 16.
For C/C=C(\C)C(=O)N1CC2(CC(c3cccc(NC(=O)CCCCC)c3)=NO2)C[C@@H]1C(N)=O (stereo partly specified) the results were Biofilm kill mix 14.
`COCCN(C(=O)CSc1nc2nc(C)cc(C)n2n1)c1c(N)n(Cc2ccccc2)c(=O)[nH]c1=O` gave Biofilm kill mix 13.

5 structures already listed, sorted by molecular weight, low to high:
S=c1[nH]nc(CNc2cccc(Cl)c2)o1 was read as Biofilm kill mix 12.
CC(=O)c1c(C)[nH]c(C(=O)N(CCc2ccccc2)Cc2ccccc2)c1C was read as Biofilm kill mix 6.
Screening COc1cccc(CN(C)C(=O)c2cc(COc3c(F)cccc3F)on2)c1 returned Biofilm kill mix 14.
For C/C=C(\C)C(=O)N1CC2(CC(c3cccc(NC(=O)CCCCC)c3)=NO2)C[C@@H]1C(N)=O (stereo partly specified) the results were Biofilm kill mix 14.
For NC(=O)[C@@H]1CC2(CC(c3cccc(NC(=O)CC(c4ccccc4)c4ccccc4)c3)=NO2)CN1C(=O)c1ccc(Cl)cc1 (stereo partly specified) the results were Biofilm kill mix 8.

The results go on.
CCOC(=O)CC(=O)CSc1nc(CC)c(C)cc1C#N was read as Biofilm kill mix 16.
`Cc1cnc(C(=O)OCC(=O)Nc2ccc(C)c(S(=O)(=O)N3CCCCC3)c2)cn1` gave Biofilm kill mix 22.
CC1(C)CC(=O)C(C(C2=C(O)CC(C)(C)CC2=O)c2ccc(Br)s2)C(=O)C1 (stereo unspecified) was read as Biofilm kill mix 13.
COc1ccc(Cn2c(=O)[nH]c3cc(C(=O)NC4CCCC4)ccc3c2=O)cc1 was read as Biofilm kill mix 8.
O=C(NCC1CCCO1)c1ccc(Cn2c(=S)[nH]c3ccccc3c2=O)cc1 (stereo unspecified) was read as Biofilm kill mix 27.
For COc1cc(Cl)c(C)cc1NC(=O)CN(C)Cc1cccc(OC)c1OC the results were Biofilm kill mix 11.
`CCCn1c(SCCC(=O)O)nc2ccccc21` gave Biofilm kill mix 8.
`COc1ccccc1N1CCN(C(=O)CSc2nnc(NC(=O)C(C)C)s2)CC1` gave Biofilm kill mix 5.
`CCCCN1C(=O)Nc2ccccc2S1(=O)=O` gave Biofilm kill mix 6.
Screening CCOc1ccc(S(=O)(=O)N(C)c2ccc(OCC(=O)NCc3cccnc3)cc2)cc1 returned Biofilm kill mix 7.
`COC(=O)/C=C1\NCCNC1=O` gave Biofilm kill mix 20.
For CC(C)Oc1ccc(C(=O)OC(C)C(=O)Nc2nc(-c3cccc([N+](=O)[O-])c3)cs2)cc1 (stereo unspecified) the results were Biofilm kill mix 11.
`COc1ccc(-c2cc(C#N)nc(NN)n2)cc1` gave Biofilm kill mix 3.
Cc1cc(C)c2nc(-c3ccccn3)cc(C(=O)Nn3cnnc3)c2c1 was read as Biofilm kill mix 16.
CCOC(=O)C(=O)NC(C)c1ccccc1 (stereo unspecified) was read as Biofilm kill mix 15.
For N=c1n(CCCOc2ccccc2Cl)c2ccccc2n1CC(N)=O the results were Biofilm kill mix 12.
O=[N+]([O-])c1ccc(CN2CCN(Cc3c[nH]c4ccccc34)CC2)cc1 was read as Biofilm kill mix -8.
`O=C(CCCSc1nc2ccccc2[nH]1)Nc1nnc(C2CC2)s1` gave Biofilm kill mix 12.
`COc1ccc(C2c3[nH]c4ccccc4c3CCN2C(=O)c2ccc(=O)n(C)n2)c(F)c1` (stereo unspecified) gave Biofilm kill mix -4.
For Cc1cc(Nc2ccccc2N2CCOCC2)n2ncnc2n1 the results were Biofilm kill mix 8.
For CCOc1ccc(CCNC(=O)COC(=O)c2cc(OC)c(OC)c(OC)c2)cc1OCC the results were Biofilm kill mix 17.
CCCN(CCC)CCNC(=O)C1c2ccccc2C(=O)N2CCc3ccccc3C12 (stereo unspecified) was read as Biofilm kill mix 13.
Screening CCc1nc(-c2ccc(OC)c(OC)c2)cc2cc(OC)c(OC)cc12 returned Biofilm kill mix 21.
Screening COc1cc2c(cc1OC)C(c1cc3cc4c(cc3[nH]c1=O)OCO4)N(C(=O)C(C)C)CC2 (stereo unspecified) returned Biofilm kill mix 7.
For CCCCOC(=O)Nc1nnc(Cc2ccc(Cl)cc2)s1 the results were Biofilm kill mix 10.
`CCc1nc2cc(Cl)c(Cl)cc2nc1CC` gave Biofilm kill mix 4.
For Cc1ccc(F)c([C@H]2[C@@H]3C=CCC[C@@]3(C)C(=O)N2Cc2ccccc2)c1 the results were Biofilm kill mix 17.
For CCCC(=O)Nc1sc(Cc2ccccc2)c(C)c1C(N)=O the results were Biofilm kill mix 18.
O=C(NC(=S)Nc1nc2c(s1)CCCC2)c1ccccc1 was read as Biofilm kill mix -4.
Screening CCOP(=O)(OCC)C(Nc1ccc(OC)cc1)c1ccco1 (stereo unspecified) returned Biofilm kill mix 13.
`CC1=C(C(=O)Nc2ccc(C)cn2)C(c2cnn(C)c2)C2=C(CCCC2=O)N1` (stereo unspecified) gave Biofilm kill mix 5.
`Cc1ccc(S(=O)(=O)/C=C/c2ccccc2)cc1` gave Biofilm kill mix 19.
`O=c1[nH]c2ccc(S(=O)(=O)N3CCCCC3)cc2o1` gave Biofilm kill mix 11.
Screening CCOC(=O)N/N=C/c1ccccc1OCc1ccc(Cl)cc1 returned Biofilm kill mix 13.
Screening Cn1nc(-c2ccccc2)c(/C=N/O)c1Cl returned Biofilm kill mix 17.
Screening O=C(NCC(c1cccs1)N1CCOCC1)c1ccccc1NS(=O)(=O)c1ccc(Br)cc1 (stereo unspecified) returned Biofilm kill mix 1.

A stretch of the results above, for reference:
For CCCCOC(=O)Nc1nnc(Cc2ccc(Cl)cc2)s1 the results were Biofilm kill mix 10.
`CCc1nc2cc(Cl)c(Cl)cc2nc1CC` gave Biofilm kill mix 4.

(listing goes on)
`Cc1cc(Cl)nc(-c2ccccc2)n1` gave Biofilm kill mix -18.
For COc1ccc2c(c1)C(c1cccs1)=NNC(c1cccnc1)=N2 the results were Biofilm kill mix 13.
COc1cc2c(cc1[N+](=O)[O-])n(C(C)C)c(=O)n2C(C)C was read as Biofilm kill mix 15.
For CC(=O)NC1=NN(C(C)=O)C(C)(CCS(=O)(=O)c2ccc(Cl)c(Cl)c2)S1 (stereo unspecified) the results were Biofilm kill mix 14.
CCCCNC(=O)N1CCN(C/C=C/c2ccccc2)CC1 was read as Biofilm kill mix 10.
Screening CCOCCCNC(=S)N1CCC(NC(=O)C2CCCCC2)CC1 returned Biofilm kill mix 16.
`CC(C)(C)OC(=O)NCc1ccc(NC(=O)c2nc[nH]c2C(=O)N[C@@H](Cc2ccccc2)C(=O)OC(C)(C)C)cc1` gave Biofilm kill mix 15.
`COC(=O)CSc1nc(NC(C)C)nc(N(C)C)n1` gave Biofilm kill mix 13.
For O=C(CSCc1cccc(Cl)c1)Nc1ccccc1-c1ccccc1 the results were Biofilm kill mix 9.
For O=C(NNC1CC(=O)N(c2ccc(F)cc2)C1=O)c1cccnc1 (stereo unspecified) the results were Biofilm kill mix 31.
CCOC(=O)COc1ccc2c(=O)c(-c3ccccc3OC)coc2c1 was read as Biofilm kill mix 13.
For CCCCCCC(=O)NNC(=O)CC(=O)Nc1ccccc1C(=O)O the results were Biofilm kill mix -5.
Screening COc1ccc(-n2cc(-c3ccccc3)c3c(N4CC(C)OC(C)C4)ncnc32)cc1 (stereo unspecified) returned Biofilm kill mix 15.
CC(C)(C)c1ccc(NC(=S)NCc2cccnc2)cc1 was read as Biofilm kill mix 10.
Oc1ccc(Br)cc1/C=N/N1CCN(Cc2cccc3ccccc23)CC1 was read as Biofilm kill mix 11.
For N/C(=N\OS(=O)(=O)c1ccc2ccccc2c1)c1ccccn1 the results were Biofilm kill mix -3.
O=C(CSc1nnc(SCc2ccccc2)s1)N/N=C/C=C/c1ccccc1[N+](=O)[O-] was read as Biofilm kill mix 2.
`Cc1[nH]c2ccc(-c3n[nH]c(=S)n3Cc3ccccc3)cc2c1C` gave Biofilm kill mix 2.
`COc1ccc2cc(C#N)c(SCC(=O)N3CC(=O)Nc4ccccc43)nc2c1` gave Biofilm kill mix 16.
CC1C(=O)N(Cc2ccc([N+](=O)[O-])cc2)c2ccccc2N1C(=O)C1CC1 (stereo unspecified) was read as Biofilm kill mix 14.
`COc1ccc(CC(=O)NCc2nnc(SCC(=O)c3ccc(OC)cc3)n2C)cc1` gave Biofilm kill mix 14.
Screening Cc1nc(SC(C)C(=O)Nc2cccc(C(F)(F)F)c2)c2c(C)c(C(=O)O)sc2n1 (stereo unspecified) returned Biofilm kill mix 14.
`O=C1/C(=C/c2ccncc2)CCC/C1=C\c1ccncc1` gave Biofilm kill mix -8.
`CC(=O)Nc1ccc(OCC(O)Cn2ccnc2C)cc1` (stereo unspecified) gave Biofilm kill mix 8.
Screening COC(=O)c1sc(-c2ccccc2)cc1NC(=O)C1CC1 returned Biofilm kill mix 13.

Gathered by group: those above containing a cyano group (four)
Cc1ccc(C2OC34CCCCCC3C(C#N)(C(=N)O4)C2(C#N)C#N)cc1 (stereo unspecified) was read as Biofilm kill mix 12.
CCOC(=O)CC(=O)CSc1nc(CC)c(C)cc1C#N was read as Biofilm kill mix 16.
`COc1ccc(-c2cc(C#N)nc(NN)n2)cc1` gave Biofilm kill mix 3.
`COc1ccc2cc(C#N)c(SCC(=O)N3CC(=O)Nc4ccccc43)nc2c1` gave Biofilm kill mix 16.

These rows are one share of the data; rates above refer to the full screens.
